Screening results as filed in PubChem BioAssay.
YB-1 expr inh – YB-1 expression inhibition. U2OS, qRT-PCR YB-1 vs CDIP delta delta Cp, 16 h; hits give high values; zero = DMSO, each unit about twofold. delta delta Cp (YB-1 minus CDIP) (no concentration beside the values). 30,000 compounds, 0.37% hits. AID 434959;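 active = delta delta Cp rounded down to an integer at or above 3, about 3 SD of DMSO wells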;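 also: higher means less YB-1 transcript or more CDIP transcript relative to DMSO; stock transfer was 100 nL into about 100 µL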
* hit, by the source's call. An excerpt (hit frequency here may not be typical).

YB-1 expr inh	compound
0.12	COCCOC(=O)N1C(=O)[C@@]2(c3cc(C#CC4=CCCCC4)ccc31)[C@H](C(=O)NC[C@H](O)c1ccccc1)[C@H]1C(=O)O[C@H](c3ccccc3)[C@H](c3ccccc3)N1[C@@H]2c1ccc(O)cc1
-0.35	O=C(CCCCC(=O)N/N=C/c1ccc(C(=O)O)cc1)NO
-0.091	O=C(N/N=C/c1cccc(OCCO)c1)c1ccccn1
-0.42	Cc1noc(C)c1NC(=O)N(C)C[C@@H]1OCc2cnnn2CCCC(=O)N([C@H](C)CO)C[C@H]1C
-0.4	C[C@H](CO)N1C[C@H](C)[C@H](CN(C)S(=O)(=O)c2ccccc2)Oc2ncc(C#Cc3ccc(F)cc3)cc2C1=O
-0.25	C[C@H](CO)N1C[C@H](C)[C@H](CN(C)S(=O)(=O)c2ccc(C#N)cc2)Oc2ncc(-c3ccccc3)cc2C1=O
0.053	COc1cccc(S(=O)(=O)N(C)C[C@H]2OCc3cnnn3CCCC(=O)N([C@@H](C)CO)C[C@H]2C)c1
-0.67	C[C@@H]1CN([C@@H](C)CO)C(=O)CCCn2cc(nn2)CO[C@@H]1CN(C)Cc1ccncc1

Arranged by count of non-hydrogen atoms (low to high): part of the list above.
YB-1 expr inh	compound
-0.42	Cc1noc(C)c1NC(=O)N(C)C[C@@H]1OCc2cnnn2CCCC(=O)N([C@H](C)CO)C[C@H]1C
0.053	COc1cccc(S(=O)(=O)N(C)C[C@H]2OCc3cnnn3CCCC(=O)N([C@@H](C)CO)C[C@H]2C)c1
-0.25	C[C@H](CO)N1C[C@H](C)[C@H](CN(C)S(=O)(=O)c2ccc(C#N)cc2)Oc2ncc(-c3ccccc3)cc2C1=O
-0.4	C[C@H](CO)N1C[C@H](C)[C@H](CN(C)S(=O)(=O)c2ccccc2)Oc2ncc(C#Cc3ccc(F)cc3)cc2C1=O
